Source: PubChem
Bead autofluor = compound fluorescence in toxin protease inhibitor counterscreen; 360,000 tested, 3.1% active; fluorescence intensity (test concentration not listed); compound autofluorescence counterscreen, microsphere flow cytometry; hits give high values;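 active means at least 3 SD above the mean of all compounds, about 16000 in these data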;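 further: 100 nL of 1 mM stock went into each well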
* = called active by the depositor. Not all compounds are listed (hit frequency here may not be typical).

mol	Bead autofluor
COc1ccc(C(C#N)CC(=O)c2ccc(OC)c(OCc3ccccc3)c2)cc1OC (centres undefined)	3316
COc1ccc(N=C(C)C2C(=O)c3ccccc3C2=O)cc1	4512
O=C(COC(=O)/C=C/c1ccc2ccccc2n1)NNC(=O)c1ccccc1	4139
COc1ccc(C)c2sc(N(CCN(C)C)C(=O)c3ccc(S(=O)(=O)N(C)c4ccccc4)cc3)nc12	3594
CCN(CC(=O)Nc1ccccc1C(F)(F)F)C(=O)c1ccc2c(c1)NC(=O)C(C)S2 (centres undefined)	3903
CN(c1ccc([N+](=O)[O-])cc1)c1cc2c(c3c1ccn3C)C1CCC2C1 (centres undefined)	5378
COc1ccc(-c2coc3c(C(=O)NCc4ccccc4)cccc23)c(C)c1	3609
O=[N+]([O-])c1ccc(-c2nc(Cl)c3c(n2)CCCC3)o1	2969
C[C@@H]1CN([C@H](C)CO)C(=O)CCCn2nncc2CO[C@H]1CN(C)Cc1ccc(-c2ccccc2)cc1	3328
COC(=O)C[C@H]1C[C@@H]2c3cc(NC(=O)Nc4ccccc4)ccc3O[C@@H]2[C@@H](CO)O1	3940
O=C(NCc1cccnc1)c1cc(C2CCCCN2S(=O)(=O)Cc2ccccc2)on1 (centres undefined)	2962
O=S(=O)(Nc1ccc(C(O)(C(F)(F)F)C(F)(F)F)cc1)c1cccc2cccnc12	3554
CC1=C(C(=O)N2CCOCC2)CC(CC(=O)NC(c2ccccc2)c2ccccc2)C(=O)N1Cc1ccc(F)cc1 (centres undefined)	3409
CCCCC(=O)N(C)c1c(C)nc2ccc(C(=O)N3CCN(c4ccccc4)CC3)cn12	3858
CC(=O)Nc1cc(-c2cccc(NS(C)(=O)=O)c2)cn2c(-c3cccc(C(F)(F)F)c3)cnc12	3921
CCc1ccc(C(O)c2ncc(-c3ccccc3F)[nH]2)cc1 (centres undefined)	3751
C[C@H]1CN([C@@H](C)CO)S(=O)(=O)c2ccc(Br)cc2O[C@@H]1CN(C)C(=O)C1CCOCC1	3414
CC1=C(C(=O)N2CCOCC2)CC(CC(=O)NCc2cccs2)C(=O)N1Cc1ccc(F)cc1 (centres undefined)	3879
CCCN(CC1CC1)C(=S)NC(=O)c1ccccc1C	3623
S=C1SC2(CCCCCC2)NC2=C1CCCCC2	3955
CC1=C(C(=O)N2CCOCC2)CC(CC(=O)NCc2ccco2)C(=O)N1Cc1ccc(C(C)(C)C)cc1 (centres undefined)	2995
COc1ccc(NC(=O)C2(C)Cc3c(-c4ccc5c(c4)OCO5)ccnc3O2)cc1 (centres undefined)	3602
O=C1[C@H]2[C@@H](c3ccc(C(F)(F)F)cc3)N[C@]3(CCCN(Cc4ccc(F)cc4)C3=O)[C@H]2C(=O)N1Cc1ccccc1	3864
CCOC(=O)Nc1ccc2nc(-c3cscn3)[nH]c2c1	2919
CCOC(=O)C1(C)CCN1C(=O)c1ccc(C(=O)OC)cc1 (centres undefined)	3258
CC(=O)Nc1ccc(-c2ccnc3c2CC(C(=O)Nc2cccnc2)O3)cc1 (centres undefined)	4070
CSCC[C@H](NC(=O)Cc1c(C)c2cc3c(C)c(C)oc3cc2oc1=O)C(=O)N[C@@H](C(=O)O)c1ccccc1	5516
CCCCCCCCC(c1nc2ccccc2[nH]1)N1CCN=C(c2ccccc2)C1=O (centres undefined)	4329
CCCNC(=O)C1(C)CCCN(C(=O)c2cc(C)n(C(C)(C)C)n2)C1 (centres undefined)	4100
COc1ccccc1-c1n[nH]nc1C1=CC(=O)CC(C)(C)C1	3814
CNC(=O)c1ccc(CN(C)C(=O)/C=C/c2ccc(S(=O)(=O)N3CCCCCC3)cc2)cc1	2936
CCOP(=O)(OCC)C(Cc1ccccc1)N=C(c1ccccc1)c1ccccc1 (centres undefined)	5751
Cc1ccc(C(=O)OCC(=O)NC2CCCC(C)C2C)s1 (centres undefined)	4024
Cc1ccc(Nc2nc(NCC3CC3)nc3ccsc23)c(C)c1	3552
CCc1nc2ccc(C(=O)NCCOc3ccc(OC)cc3)cn2c1N(CCN(C)C)CC1CC1	4605
CN(C)Cc1csc(NC(=O)Nc2ccccc2Cc2ccccc2)n1	3793
CC(=O)c1cccc(-c2ccnc3c2CC(C(=O)NCc2ccc(F)c(F)c2)O3)c1 (centres undefined)	3959
COc1ccccc1-c1cc(NC=O)c2ncc(-c3cccc(C(=O)N(C)C)c3)n2c1	3407
CCCNC(=O)N(C)C[C@@H]1Oc2cc(C#CC(C)(C)O)ccc2S(=O)(=O)N([C@H](C)CO)C[C@H]1C	3482
O=C(/C=C/[C@H]1O[C@@H](n2ccc(=O)[nH]c2=O)[C@H](O)[C@@H]1O)NCc1cccc2ccccc12	5669
COc1ccc(C(C)(O)c2nc(-c3ccccc3OC)cs2)cc1 (centres undefined)	2853
C#CCN(C[C@H]1[C@H](OC(=O)NC2CCCC2)[C@H](OC(=O)NC2CCCC2)C[C@H]2C(=O)N(c3ccccc3)C(=O)[C@@H]12)S(=O)(=O)c1ccc(C)cc1	3748
CCOC(=O)[C@]12Cc3ccccc3[C@H]1N(C)C(=O)c1cc(OC)ccc12	5885
Cc1ccc(S(=O)ONc2cccc(NOS(=O)c3ccc(C)cc3)c2)cc1 (centres undefined)	2980
Cc1ccc(OCC(=O)Nc2ccc3c(c2)nc(CCN2CCN(c4ccccn4)CC2)n3C)cc1	3983
CC(C)(C)OC(=O)N1Cc2cc3ccccc3nc2C1	2927
O=C1c2ccccc2C(c2nnnn2Cc2ccccc2)N1Cc1ccc(F)cc1 (centres undefined)	5564
CCOC(=O)c1cc(-c2sc(NC(=O)c3ccccc3)nc2C)n(-c2ccc(Br)cc2)n1	3156
COc1cccc(CN2CCC2(C)C(=O)Nc2cccc(Oc3ccccc3)c2)c1OC (centres undefined)	3916
CCc1nc2c(OCC(=O)C(C)(C)C)cccn2c1N(C)C(=O)CC(C)C	3895
CCN(CC)CCOc1ccc(-c2c(C)c3c(ccc4ccccc43)oc2=O)cc1	3636
CC(C)C1CC2=C(C(=O)OC(C)(C)O2)C(c2ccc(Cl)cc2)O1 (centres undefined)	5432
O=C(Nc1cccnc1)C1Cc2c(-c3ccccc3Oc3ccccc3)ccnc2O1 (centres undefined)	3009
CC1(C(=O)Nc2ccc3[nH]ncc3c2)CCN1C(=O)Cc1ccc(-c2ccccc2)cc1 (centres undefined)	3750
O=C(Nc1cccc(S(=O)(=O)N2CCCC2)c1)[C@@H]1O[C@H](CO)[C@H](O)[C@H](O)[C@H]1O	2985
CC1(C(=O)NS(C)(=O)=O)CCN1C(=O)Cc1ccc(-c2ccccc2)cc1 (centres undefined)	3482

The listing continues.
mol	Bead autofluor
COc1ccc(OC)c(S(=O)(=O)NC(=O)C2(C)CCN2C(=O)Cc2ccc(Cl)cc2Cl)c1 (centres undefined)	2787
CC1NC(=O)c2cc3ccccc3cc2-n2c1nc1cc(Cl)ccc1c2=O (centres undefined)	2902
Cc1csc(SCC(=O)Nc2cc(F)ccc2C)n1	3388
CCCNC(=O)C1(C)CCN(C(=O)Cc2ccc(OC)c(OC)c2)C1 (centres undefined)	3924
COc1ccc(CNC(=O)[C@H](Cc2ccccc2)NC(=O)CC[C@H]2O[C@@H](n3ccc(=O)[nH]c3=O)[C@H](O)[C@@H]2O)cc1	5916
O=C(NCCN1CCC(n2c(=O)[nH]c3ccccc32)CC1)c1cccnc1Cl	5618
CCOc1ccc(OCCC(=O)Nc2ccccc2C(=O)NC2CC2)cc1	2895
C[C@H]1CN([C@@H](C)CO)C(=O)CCCn2nncc2CO[C@H]1CN(C)C(=O)Oc1cccc2ccccc12	2914
CC1=C(C(=O)N2CCOCC2)CC(CC(=O)NC2CC2)C(=O)N1CCC1=CCCCC1 (centres undefined)	5681
CC(=O)Nc1ccc(NC(=O)C2(C)Cc3c(-c4ccc(NC(C)=O)cc4)ccnc3O2)cc1 (centres undefined)	2932
O=C(C=CC=Cc1ccccc1)c1ccc([N+](=O)[O-])cc1	3621
COC(=O)[C@@]1(C(C)C)N=C(c2cc(OC)c(OC)c(OC)c2)[C@]2(O1)C(=O)N(C)c1ccccc12	4274
Cc1cc(C(=O)N2CCCC(N3CCN(c4ccccc4C)CC3)C2)no1 (centres undefined)	2945
CN(Cc1ccccc1)C(=O)c1ncn2c1c(=O)[nH]c1cccnc12	3003
CCCN(C)C[C@@H]1OCCCC[C@@H](C)Oc2ccc(NS(=O)(=O)c3ccc(OC)cc3)cc2C(=O)N([C@H](C)CO)C[C@@H]1C	4406
COc1ccc([C@H]2N[C@]3(CCCN(CC4CCCCC4)C3=O)[C@H]3C(=O)N(C)C(=O)[C@@H]23)cc1	3030

Grouped by structure, the entries above with a furan ring, fused or not (4)
mol	Bead autofluor
COc1ccc(-c2coc3c(C(=O)NCc4ccccc4)cccc23)c(C)c1	3609
O=[N+]([O-])c1ccc(-c2nc(Cl)c3c(n2)CCCC3)o1	2969
CC1=C(C(=O)N2CCOCC2)CC(CC(=O)NCc2ccco2)C(=O)N1Cc1ccc(C(C)(C)C)cc1 (centres undefined)	2995
CSCC[C@H](NC(=O)Cc1c(C)c2cc3c(C)c(C)oc3cc2oc1=O)C(=O)N[C@@H](C(=O)O)c1ccccc1	5516

Additional entries
mol	Bead autofluor
Cc1nn(CC(C)C)c(Cl)c1C(=O)NCC1CCCO1 (centres undefined)	3514
O=S1(=O)N[C@H](Cc2ccccc2)COc2cccc(N3CCN(Cc4ccccc4F)CC3)c21	5543
Cc1ccc(NC(=O)COC(=O)c2cccc(S(=O)(=O)N3CCCCCC3)c2)cc1	3823
CC1(C)CC(=O)C=C(c2cn[nH]n2)C1	2830
COc1ccc(Cc2nnc(SC)n2-c2ccc(F)cc2)cc1OC	5335
O=C(Nc1ccncc1)c1cc(C2CCCCN2C(=O)CCCc2ccccc2)on1 (centres undefined)	3888
CC(=O)NC(c1ccccc1)c1nc(-c2cccc(C(F)(F)F)c2)cs1 (centres undefined)	3857
COCCNC(=O)C[C@@H]1C[C@H]2c3cc(NC(=O)Nc4ccc(F)cc4)ccc3O[C@H]2[C@H](CO)O1	2889

Among those listed so far, these have an aryl thioether with sulfur outside any ring:
mol	Bead autofluor
Cc1csc(SCC(=O)Nc2cc(F)ccc2C)n1	3388
COc1ccc(Cc2nnc(SC)n2-c2ccc(F)cc2)cc1OC	5335

New compounds follow:
mol	Bead autofluor
Cc1ccc(S(=O)(=O)N2C[C@H]3C(=O)C[C@@H](c4ccc(Cl)cc4)N(S(=O)(=O)c4ccccc4C)[C@H]3C[C@H]2c2ccc(Cl)cc2)cc1	3004
CSc1ncnc2c1ncn2CCCN(C)Cc1ccco1	3681
COc1ccc(CN2Cc3cc(-c4cccc(F)c4)ccc3-n3nncc3C2)cc1	6396
CC(C)N(C)c1ncnc2c1ncn2[C@H]1CN(Cc2cccnc2)C[C@@H](CO)O1	3710
CCCNC(=O)C1(C)CCN(C(=O)c2ccc(OC(F)F)cc2)C1 (centres undefined)	2820
COc1cccc(NC(=O)C2(C)CCN2Cc2ccc3ccccc3c2)c1 (centres undefined)	3585
COc1ccccc1Cc1c(-c2ccc(C#N)cc2)nc2ccc(C)cn12	9186
CN(C)S(=O)(=O)c1cccc(NC(=O)CNc2cccc(S(=O)(=O)N3CCCCC3)c2)c1	3123

Structures from the list above with a thiophene ring, fused or not (three):
mol	Bead autofluor
CC1=C(C(=O)N2CCOCC2)CC(CC(=O)NCc2cccs2)C(=O)N1Cc1ccc(F)cc1 (centres undefined)	3879
Cc1ccc(C(=O)OCC(=O)NC2CCCC(C)C2C)s1 (centres undefined)	4024
Cc1ccc(Nc2nc(NCC3CC3)nc3ccsc23)c(C)c1	3552

Carrying on.
mol	Bead autofluor
CC(=O)N1CCOCC1c1cc(C(=O)Nc2ccccc2)no1 (centres undefined)	3547
O=C(NC(c1ccc(F)cc1)c1ccc2ccccc2n1)C1CCN(Cc2ccc(Oc3ccccc3)cc2)CC1 (centres undefined)	3718
O=C(COC(=O)c1ccc(S(=O)(=O)N2CCOCC2)cc1)NCc1ccco1	2959
COc1ncnc2c1ncn2CCCN1CCN(c2ncccn2)CC1	3454
O=C(CC1CCCC1)NNC(=O)c1ccccc1O	2907
C[C@H]1CN([C@@H](C)CO)S(=O)(=O)c2ccc(-c3ccc(C#N)cc3)cc2O[C@H]1CN(C)C(=O)CN(C)C	5858
COC(=O)c1ccc2cc(F)cc(C)c2n1	5785
CC1=C(C(=O)N2CCCCCC2)CC(CC(=O)NC2CCCCC2)C(=O)N1Cc1ccc(F)cc1 (centres undefined)	6484
CCNC(=O)C1CCCN(C(=O)c2cc(F)ccc2C)CC1 (centres undefined)	3896
COc1ccc(NC(=O)c2cc(-c3cc(Cl)ccc3OC)n[nH]2)c(OC)c1	2951
COc1ccc(CNC(=O)O[C@@H]2C[C@H]3C(=O)N(c4ccccc4)C(=O)[C@H]3[C@@]3(CN(S(=O)(=O)c4ccc(C)cc4)C[C@H]3C)[C@@H]2O)cc1OC	3141
OC(c1ccc(F)c(F)c1)c1nc(-c2cccs2)cs1 (centres undefined)	3034
CC1(C(=O)NCC2CCOCC2)Cc2c(-c3cccc(C(N)=O)c3)ccnc2O1 (centres undefined)	4055
Cc1ccc2nc(C3CCCCC3)c(Cc3cccc(F)c3)n2c1	4303
CCOC(=O)C1CCCN(C(=O)c2ccc(F)c(Cl)c2)CC1 (centres undefined)	2981
CC(C)(C)NC(=O)C1c2ccccc2OCC(=O)N1CCc1ccccc1 (centres undefined)	6344
CCCc1ccc(S(=O)(=O)N2CCN(C(=O)CN3C(=O)NC(C)(C4CC4)C3=O)CC2)cc1 (centres undefined)	3631
c1ccc(Cn2ncc3c(N4CCN(c5ccccc5)CC4)ncnc32)cc1	3614
